Bioassay records (PubChem BioAssay)
Sa ugtP lethal = compounds lethal to S. aureus RN4220 ugtP deletion mutant; OD600 growth, 16 h; some inactives read as strong as hits; AID 1259309; growth inhibition, % (test concentration not listed); hit rate 0.54% among 330,000;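 active means z-score under -3 and OD600 up to 0.15 on both plates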;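 further: plate controls were untreated wells for no effect and antibiotic for full effect; wells of about 80 µL received 100 nL stock; the first replicate is given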
PrP UTR inh = inhibition of PrP 5' UTR reporter expression | AID 488862 | cell-based PrP 5' UTR mRNA reporter, plate reader | inhibition, % (no concentration beside the values) | hit rate 0.35% among 340,000;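 active means every replicate at 50% or more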;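 further: 0 = median of the neutral control wells; tested in H4 reporter cells; numbers are from one replicate; inactives centre near -14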
Bead autofluor = flagged as autofluorescent in microsphere protease counterscreen; compound autofluorescence counterscreen, microsphere flow cytometry; hits give high values; fluorescence intensity (concentration not given with the values); hit rate 3.1% among 360,000;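 active means at least 3 SD above the mean of all compounds, about 16000 in these data; inconclusive means too few beads counted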;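 further: 100 nL of 1 mM stock went into each well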
BJeLR lethal = BJeLR cell viability loss; BJeLR (HRASV12) viability, CellTiter-Glo ATP luminescence, 48 h; reference of the scale not given here; inhibition, % (concentration not given with the values); hit rate 0.17% among 300,000;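 active means replicate mean above 50%; inconclusive means above 50% but judged a plate artefact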;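 further: 50 nL library stock added to about 25 µL; numbers are from one replicate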
RN4220 kill = S. aureus RN4220 growth inhibition; OD600, 16 h; inhibition, % (no concentration beside the values); AID 1259311; hit rate 0.33% among 330,000;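 active means z-score of -3 or lower and OD600 up to 0.18 on both plates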;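 further: plate controls were untreated cells for no effect and reference antibiotic for full effect; stock transfer was 100 nL into about 80 µL; one replicate is shown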
Mtb hypoxia rep = reduces hypoxia-regulated biosensor signal in M. tuberculosis. fluorescence inhibition, % (test concentration not listed). hit rate 0.1% among 300,000. M. tuberculosis hypoxia-regulated fluorescent reporter, fluorescence;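 active means 35 to 45% if threefold the growth effect, above 45% if 1.5-fold the growth effect; inactive means the rest, general growth blockers included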;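 further: wells of about 50 µL received 100 nL stock; 0% = vehicle wells and 100% = reference inhibitor wells; whole bacteria with a GFP reporter of the hypoxia response; strong numbers were not always called active; many hits fall short of the cut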
Mtb hypoxia rep growth = also measured in Mtb hypoxia rep; calls as there; growth inhibition, %; measured here: M. tuberculosis growth (absorbance);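 0% = vehicle and 100% = reference antibiotic; read after six days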
Active calls of the source: *; u = inconclusive; x = no result given.

The line under a structure holds: Sa ugtP lethal	PrP UTR inh	Bead autofluor	BJeLR lethal	RN4220 kill	Mtb hypoxia rep	Mtb hypoxia rep growth
COc1ccc(NS(=O)(=O)c2cccc(C(=O)NNC(=O)c3ccccc3OC)c2)cc1
  3	0	u	6	2.3	-11	5
COc1cc(C(=O)NCC(=O)N2CC=C(c3ccccc3)CC2)cc(OC)c1OC
  3	-44	u	1	1.7	7	12
O=C(O)C1=CCNCC1
  -2	12	6106	3	3.3	3	5
Cc1ccc(-c2cc(N)n3nc(-c4ccc(C)cc4)cc3n2)cc1
  5	5	2627	-2	-8.6	x	x
COc1ccc(CNC(=O)C2CC(C)=C(C)CC2C(=O)O)cc1OC (stereo not drawn)
  x	-26	3625	-6	x	x	x
CC(C)n1c(C(=O)OCC(=O)NCc2ccc3c(c2)OCO3)cc2occc21
  0	-9	8135	-5	11	6	6
Cc1[nH]c(=O)[nH]c(=O)c1S(=O)(=O)N1CCCC(C(=O)N2CCC(Cc3ccccc3)CC2)C1 (stereo not drawn)
  6	-28	5868	x	5.5	2	2
Cc1ccc(CNC(=O)C(=O)NCC2OCCN2S(=O)(=O)c2cccs2)cc1 (stereo not drawn)
  7	-25	5975	4	3.8	2	-9
O=C(O)c1ccn(COc2ccc(Br)cc2)n1
  4	-17	4934	-5	-0.4	2	0
Fc1ccccc1CSc1nnc(-c2cnccn2)n1Cc1ccco1
  -2	-12	9885	8	7.3	5	2
Cc1nc(SC2C=CS(=O)(=O)C2)n[nH]1 (stereo not drawn)
  2	-10	11389	3	3.1	14	5
CCNC(=S)N/N=C/c1ccc(OCc2ccc(C(=O)OC)cc2)cc1
  x	2	9644	11	x	x	x
CC(C)(C)c1cnnn1-c1ccc(NC(=O)c2ccc(Br)o2)cc1
  0	-32	20983*	-8	0.0	4	5
Cc1ccc(CNc2ccc(N3CCN(C)CC3=O)cc2)cc1
  -3	-12	2842	x	9.6	15	5
COc1ccc(/C=C(\NC(=O)c2ccc(OC)c(OC)c2)C(=O)NCCc2c[nH]c3ccccc23)cc1
  8	-28	3158	-17	-0.9	5	10
COc1cccc(NC(=O)c2ccccc2OCc2c(C)noc2C)c1
  -1	-17	x	x	1.7	-8	5
c1cc2c(cc1C1=NNC(=NC3CC3)SC1)OCCO2
  4	91*	4332	49	0.9	20	10
CCC(C)[C@H](NC(=O)N1CCC(C)CC1)C(=O)OC (stereo partly drawn)
  -2	-22	5915	10	2.1	-6	4
CC(CCc1ccccc1)NC(=O)CSc1cccc[n+]1[O-] (stereo not drawn)
  1	-24	4404	1	3.8	11	12
CC(C)c1ccc(Nc2c([N+](=O)[O-])c(=O)n(C)c3ccccc23)cc1
  6	-19	x	9	3.4	0	2
O=C(OCc1cn(-c2ccc(Cl)cc2)nn1)c1ccccc1
  9	-16	8820	3	5.4	2	0
COC(=O)C1=C(c2cccc(OC)c2OC)C[C@@H]2CC[C@H]1N2C(=O)N1CCOCC1
  x	-19	3119	-1	x	x	x
Cn1c(SCC(=O)N/N=C/C=C\c2ccco2)nc2ccccc21
  x	-18	22987*	3	x	x	x
CN(c1ccccc1)S(=O)(=O)c1ccc(Cl)c(C(=O)OCC(=O)NC2CCS(=O)(=O)C2)c1 (stereo not drawn)
  5	-11	5669	2	5.7	7	6
N#CC1=C2SCN(c3ccc(F)cc3)CN2C(=O)CC1c1cccc(F)c1 (stereo not drawn)
  -7	-8	4538	2	-11	-5	9
Cc1cc(C(=O)N2CCN(Cc3ccccc3)CC2)on1
  7	-11	5905	13	3.0	0	7
O=C(NCc1ccco1)c1ccc(Cl)s1
  3	-26	2531	-1	12	x	x
O=c1[nH]c(/C=C/c2ccccc2Cl)nc2ccccc12
  -5	-72	3046	-3	-4.3	2	-7
CCCN1C(=O)c2ccccc2NC1c1ccc(OC)cc1O (stereo not drawn)
  -3	-6	3470	9	-3.6	-3	8
CCCCCn1c(=O)[nH]c2cc(C(=O)N3CCN(Cc4ccc5c(c4)OCO5)CC3)ccc2c1=O
  -7	2	3118	2	-1.3	-1	2

Continued (three carried over from the part before).
The line under a structure holds: Sa ugtP lethal	PrP UTR inh	Bead autofluor	BJeLR lethal	RN4220 kill	Mtb hypoxia rep	Mtb hypoxia rep growth
O=c1[nH]c(/C=C/c2ccccc2Cl)nc2ccccc12
  -5	-72	3046	-3	-4.3	2	-7
CCCN1C(=O)c2ccccc2NC1c1ccc(OC)cc1O (stereo not drawn)
  -3	-6	3470	9	-3.6	-3	8
CCCCCn1c(=O)[nH]c2cc(C(=O)N3CCN(Cc4ccc5c(c4)OCO5)CC3)ccc2c1=O
  -7	2	3118	2	-1.3	-1	2
O=C(NCc1ccc2c(c1)OCO2)c1sccc1Br
  13	-16	x	-9	1.7	7	8
COCC(=O)Nc1nnc(SCC(=O)N2CCCCC2)s1
  6	-23	5582	-5	0.2	5	10
Cn1c(=O)n(C)c2cc(NC(=O)CCc3ccccc3)c(Br)cc21
  5	15	4321	3	3.4	11	7
COc1ccc(NC(=O)CN2CCC3(O)CCCCC3C2c2ccccc2OC)cc1 (stereo not drawn)
  -2	x	x	1	-0.3	1	1
Cc1cccc(-c2nc(Nc3cccc(O)c3)c3ccccc3n2)c1
  37	-2	4352	-3	41	-2	3
O=c1c(-c2ccnn2-c2cccc(Cl)c2)cnc2n1CCS2
  2	-1	4645	3	1.5	x	x
O=C(NC(=O)c1ccccc1F)Nc1nc(-c2cccs2)cc(C(F)(F)F)n1
  11	-16	5334	3	6.6	-8	3
OC1(C#CCCN2CCCCC2)c2ccccc2-c2ccccc21
  4	-24	4331	x	7.6	15	8
C=C1C(=O)OC2CC(C)C3C=CC(=O)[C@@]3(C)C(OC(=O)CC(=O)OC3C4C(=C)C(=O)OC4CC(C)C4C=CC(=O)[C@]43C)C12 (stereo partly drawn)
  63	x	x	x	36	x	x
Nn1c(SCc2ccccc2F)nnc1-c1ccccn1
  10	x	x	4	1.9	6	6
Cc1ccc2[nH]c3c(NCc4ccco4)ncnc3c2c1
  -14	-63	11424	10	3.4	5	11
CCn1c(SCC(=O)Nc2ccccc2C)nc2nc3c(cc2c1=O)COC(C)(C)C3
  3	-26	4883	10	4.0	11	8
Cc1cccc(NC2=CC(=O)CC(C)(C)C2)c1C
  7	-24	3478	-2	-1.3	10	19
COc1ccccc1OCCNC(=O)CN1C(=O)NC2(CCCCC2)C1=O
  0	-5	4069	x	3.7	9	2
CC(NC(=O)c1ccc(Br)o1)C1CC2CCC1C2 (stereo not drawn)
  -3	-5	4794	3	-0.3	x	x
COc1ccc(/C=N/NS(=O)(=O)c2ccc(C)cc2)cc1OC(=O)c1ccc(C)cc1
  x	1	4647	1	x	x	x
O=C(NN=Cc1cccc([N+](=O)[O-])c1)C1CC(=O)N(c2ccc(Br)cc2)C1 (stereo not drawn)
  3	x	x	x	-1.2	1	2
COC(CCN(C)C)(c1ccccc1)c1ccccc1
  5	-19	11234	9	1.8	6	1
Cc1cc(CNC(=O)CC2C(=O)NCCN2Cc2ccc(-c3ccccc3)cc2)nn1C (stereo not drawn)
  1	-5	3241	7	6.7	1	-5
CCOc1ccc(OCC(=O)Nc2nccs2)cc1
  13	58*	4840	36	5.5	10	-28
CCCCOC(=O)c1ccccc1N1C(=O)C2C3CCC(C3)C2C1=O (stereo not drawn)
  9	-26	7041	-7	7.7	5	9
CC1CCCCN1C(=O)CCc1nnc(Cc2c[nH]c3ccccc23)o1 (stereo not drawn)
  15	-16	2442	0	2.5	13	3
Cc1cc(NCCCN(C)C)n2c(nc3ccccc32)c1C#N
  9	17	3515	-12	1.5	-2	-14
O=C(COc1ccc(-c2ccccc2)cc1)N/N=C/c1cccnc1
  x	-20	6105	1	x	x	x
CCOc1cc(C=O)ccc1OCCn1c([N+](=O)[O-])cnc1C
  0	-55	5845	-6	0.9	-3	-3
O=C(c1ccc(CSc2ccc(Cl)cc2)cc1)N1CCOCC1
  2	-17	2620	1	16	16	11
Cc1ccc(NC(=O)CSc2nc3[nH]ncc3c(=O)[nH]2)c(C)c1
  -1	9	1947	-2	0.6	2	10
CCn1cc2nc(SCC(=O)Nc3ccc(F)cc3F)n(Cc3ccccc3)c(=O)c2n1
  3	-14	5453	4	-0.3	11	6
O=C(Cc1c[nH]c2ccccc12)NNCc1ccc(N(CCCl)CCCl)cc1
  -7	-1	4108	x	-0.3	-5	7
CC1CN(CCC(=O)Nc2ccccc2F)CC(C)O1 (stereo not drawn)
  6	6	4366	-2	5.4	2	5
CS(=O)(=O)N1CCc2cc(C(=O)Nc3ccc(Br)cc3)ccc21
  -3	-48	3657	15	-1.8	-1	-6
CC(C)c1nnc(NC(=O)c2nc(S(=O)(=O)Cc3ccccc3)ncc2Cl)s1
  x	-18	5119	5	x	x	x
O=C(CC(c1cccs1)S(=O)(=O)c1ccccc1)c1ccc(F)cc1 (stereo not drawn)
  4	-38	2451	-1	12	x	x
CC1CCCN(S(=O)(=O)c2cccc([N+](=O)[O-])c2)C1 (stereo not drawn)
  8	0	3190	0	5.2	6	7
CSC1=N/C(=C\c2ccc(Br)o2)C(=O)S1
  4	-18	4972	-3	1.0	x	x
Cc1ccsc1/C=C1/SC(N2CCOCC2)=NC1=O
  -16	x	x	11	-3.3	48*	18*
O=C(NCc1ccccn1)C1CCC(=O)N(Cc2ccc(Cl)cc2)C1 (stereo not drawn)
  8	-14	5331	0	1.5	4	5
COc1ccc(Br)cc1CN(C)C(=O)C1CC(=O)N(C2CCCC2)C1 (stereo not drawn)
  6	-11	3866	x	4.1	5	8
COc1ccc(CCNc2nc(C)cc(=O)[nH]2)cc1OC
  5	x	12842	7	3.2	3	4
Cn1c(NC(=O)c2ccc(S(=O)(=O)N3CCCCC3)cc2)cc(=O)n(C)c1=O
  0	-3	2047	2	1.7	4	6
CCOc1ccc(OCC(=O)OCC(=O)N2CCN(S(=O)(=O)c3ccc(C)cc3C)CC2)cc1
  0	-9	2844	x	-1.0	9	7
CC(Nc1cccc(F)c1)C(=O)Nc1ccc(S(N)(=O)=O)cc1 (stereo not drawn)
  7	-23	4706	3	2.6	1	8
COc1ccc(OC)c(NC(=O)CCN2CCN(Cc3ccccc3)CC2)c1
  3	-27	10374	-7	4.8	2	2
O=C(O)C(CCCCN1C(=O)c2ccccc2C1=O)N1C(=O)c2ccccc2C1=O (stereo not drawn)
  9	-7	2924	-4	5.8	x	x
COc1ccc(Nc2nc(C(=O)NCc3ccco3)cs2)cc1
  3	6	3503	3	3.8	-3	-11
OCCN1CCN(C(=S)c2ccc(Cl)c(Cl)c2)CC1
  -2	-8	4537	-14	4.3	9	5
Cc1cc(C)nc(SCCN2CCCCC2)n1
  3	-28	5350	-2	1.2	5	-4
